HEK293 cAMP cs = counter-screen for TSHR agonists: cAMP increase in parental HEK293. parental HEK293 CNG cAMP sensor, membrane potential fluorescence. Potency, µM (doses to about 57.1 µM), for the others: at the highest dose activation, actives largely listed as activators. 73,000 tested, 2.5% active. AID 938; also: potency is read from the fitted curve at half-maximal effect; % of control where 0% means no effect; nearly all actives have a fitted effect of over 55% in size
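Counterscreen for endogenous-receptor signalling: CNG-channel HEK 293 cells report cAMP rise by membrane depolarization. After 60 min dye equilibration with 100 uM RO 20-1724, compounds incubated 30 min before bottom-read fluorescence at 590 nm.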
HADH2 inhib = blocks human hydroxyacyl-CoA dehydrogenase type II. recombinant HADH2, NADH fluorescence, beta-hydroxybutyryl-CoA. Potency, µM (highest dose often 57.1 µM), without a hit: at the highest dose activity change, negative = inhibition, hits mostly inhibitors. 73,000 tested, 3.4% active. AID 886; also: potency is read from the fitted curve at half-maximal effect; % is scaled to controls: 0 for no effect and ±100 for the full control effect; nearly all actives have a fitted effect of over 60% in size; many of its hits are not listed in these tables
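Buffer 100 mM Tris-HCl pH 9.0/0.01% Tween-20; HADH2 20 nM; NAD+ 1 mM; beta-hydroxybutyryl-CoA 90 uM (all final). 15 min cpd preincubation, RT.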
ERK AVP inh = blocks ERK signaling stimulated by vasopressin | HEK293-V1b, vasopressin-stimulated pERK AlphaScreen | Potency, µM (top dose mostly 57.5 µM), for the others: at the highest dose activity, negative = inhibition, most hits filed as inhibitors | 72,000 tested, 0.99% active | AID 995; also: potency is read from the fitted curve at half-maximal effect; % is scaled to controls: 0 for no effect and ±100 for the full control effect; nearly all actives have a fitted effect of over 55% in size
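HEK293 cells stably expressing V1b receptor, seeded overnight in 1% FBS, were treated with compounds for 30 min at 37C, then stimulated 5 min with 25 nM vasopressin; phospho-ERK read by AlphaScreen SureFire after lysis.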
Fluorescein autfl = compound fluoresces in the fluorescein spectral region. Compound autofluorescence, 480/540 nm, fluorescein-equivalent; hits give high values. 59,000 tested, 0.91% active. max fluorescein-equivalent concentration, M; in the data active = max fluorescein-equivalent concentration above about 10 nM; inconclusive = between about 1.1 nM and that limit
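In this qHTS profile, compound fluorescence was measured with a 480 nm/540 nm filter pair following a 15-min room-temperature incubation in 100 mM Tris (pH 8.0). A six-point fluorescein series on each plate served for normalization.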
Rhodamine fluor = compound autofluorescence in rhodamine spectral region. Rhodamine-region fluorescence, 547/598 nm, Tris buffer; hits give high values. max dye-equivalent concentration, M. 59,000 tested, 0.05% active. AID 594; in the data active = max dye-equivalent concentration above about 11 nM; inconclusive = between about 1.1 nM and that limit
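qHTS spectral profiling of compounds without any target or enzyme present, in pH 8.0 Tris buffer; plates were read after a 15-minute room-temperature incubation using the rhodamine-region filter set.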
Tau filament bind = binds recombinant human tau filaments; Potency, µM (titrated, usually from 57.1 µM), for the others: at the top dose activity change, negative = inhibition; recombinant tau filaments, thioflavin S fluorescence, 15 h; filaments grown with octadecylsulfate alongside compound; P10636; AID 596; 71,000 tested, 2% active;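 also: potency is read from the fitted curve at half-maximal effect; % is scaled to controls: 0 for no effect and ±100 for the full control effect; actives lower thioflavin S fluorescence by blocking filaments or displacing dye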
Target sequence (P10636 whole entry, looked up): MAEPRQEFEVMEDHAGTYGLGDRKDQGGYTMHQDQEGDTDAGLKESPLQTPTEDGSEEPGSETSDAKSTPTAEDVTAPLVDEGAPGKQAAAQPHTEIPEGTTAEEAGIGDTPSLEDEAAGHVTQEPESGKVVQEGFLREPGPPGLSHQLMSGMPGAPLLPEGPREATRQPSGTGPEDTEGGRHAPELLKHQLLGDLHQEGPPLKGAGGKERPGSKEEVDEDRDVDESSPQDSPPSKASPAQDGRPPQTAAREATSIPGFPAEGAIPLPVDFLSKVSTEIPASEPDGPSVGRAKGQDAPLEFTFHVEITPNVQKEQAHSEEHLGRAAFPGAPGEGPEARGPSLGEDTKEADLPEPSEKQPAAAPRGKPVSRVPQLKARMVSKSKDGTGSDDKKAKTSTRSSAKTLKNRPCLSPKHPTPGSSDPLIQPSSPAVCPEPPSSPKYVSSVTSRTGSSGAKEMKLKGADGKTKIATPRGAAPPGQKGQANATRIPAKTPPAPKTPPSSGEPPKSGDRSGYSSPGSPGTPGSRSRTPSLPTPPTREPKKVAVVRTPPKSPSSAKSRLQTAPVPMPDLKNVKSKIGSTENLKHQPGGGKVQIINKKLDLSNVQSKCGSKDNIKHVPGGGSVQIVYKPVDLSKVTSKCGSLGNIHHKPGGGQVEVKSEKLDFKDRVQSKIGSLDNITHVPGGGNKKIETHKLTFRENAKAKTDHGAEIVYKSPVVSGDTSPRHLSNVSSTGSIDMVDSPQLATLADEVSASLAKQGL
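Assay mix: 1 uM His-tagged tau, 30 uM sodium octadecylsulfate, thioflavine S dye in HEPES/NaCl/DTT buffer. Compound is added prior to the inducer. Fluorescence after 15 h at 37 C.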
USP2a inhib = USP2a (human) protease inhibition | O75604 | USP2a enzymatic assay, qHTS inhibition | Potency, µM (doses to about 38.3 µM), inactives show at the highest dose activity change, negative = inhibition, usual class: inhibitors | 60,000 tested, 0.1% active;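 also: potency is read from the fitted curve at half-maximal effect; nearly all actives have a fitted effect of over 60% in size; plate controls were DMSO for no effect and NEM full inhibition control for full effect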
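Coupled readout: USP2-cleaved Ub-PLA2 (20nM final) turns over NBD C6-HPC (20uM final), Ex 460nm/Em 535nm after 2.5 h, time-zero read flagging artifacts. Enzyme (20nM final, pH 8.0 Tris) given 30 min RT with compound first; NEM defines full inhibition.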
FLuc inh = firefly luciferase inhibition; P08659; Potency, µM (titrated, usually from 57.1 µM), inactives show at the highest dose activity change, negative = inhibition, most hits filed as inhibitors; 72,000 tested, 2.2% active; purified firefly luciferase, luminescence, 8 min; also: potency is read from the fitted curve at half-maximal effect; % is scaled to controls: 0 for no effect and ±100 for the full control effect; nearly all actives have a fitted effect of over 40% in size
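Titration-based qHTS; buffer 50 mM imidazole pH 7.2, 50 mM KCl, 7 mM MgCl2, 10 uM ATP, 0.01% Tween 20, 0.05% BSA; luciferase/luciferin detector mix added after compound; 8 min, ambient; luminescence.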
TexasRed autofl = compound fluoresces in the Texas Red spectral region | Compound fluorescence, Texas Red channel, 547/618 nm; hits give high values | max dye-equivalent concentration, M | 59,000 tested, 0.06% active | AID 587; in the data active = max dye-equivalent concentration above about 10 nM; inconclusive = between about 1.1 nM and that limit
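Pin-transferred compounds and Texas Red standards go into 100 mM Tris buffer, pH 8.0. After 15 min at room temperature, plates are imaged with 547/618 nm filters. Each value is a dye-equivalent concentration derived from the per-plate dye curve.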
Numbers without * were called inactive; i = inactive; ? = inconclusive; nt = not tested or not shown; [ ] = remark or other dose. Unless noted, calls follow the shape of the dose curve; as a rule, active = well fitted curve in the direction sought with a large enough effect; inconclusive = small, poorly fitted or top-dose-only effect, or another doubt; inactive = no such curve, though single readings can be large; an effect the other way counts as inactive or inconclusive.

item	Structure	FLuc inh	Tau filament bind	ERK AVP inh	Rhodamine fluor	Fluorescein autfl	USP2a inhib	HEK293 cAMP cs	TexasRed autofl	HADH2 inhib
1	O=c1c(-c2ccc(F)cc2)nc2cnc(N3CCNCC3)nc2n1-c1ccccc1	-1.7%[11.4 µM]	27.4%	?	i	i	198.2%[activator]	-18.7%	i	75.9%[activator]
2	O=C(c1cccn2c(=O)c3cc(Cl)ccc3nc12)N1CCN(Cc2ccc3c(c2)OCO3)CC1	1.6%	-28.4%	3.8%	i	?	56.6%[activator]	16.1%	i	-8.8%
3	COc1ccc2nc3cc(Cl)ccc3c(Nc3ccc(O)c(CN4CCN(C)CC4)c3)c2c1	-2.7%[11.4 µM]	0.251µM*	-10.5%[11.5 µM]	i	i	nt	-30.8%[inhibitor][11.4 µM]	i	-23.9%[11.4 µM]
4	CC1(C)Cc2c(C#N)c(SCC(=O)c3ccccc3)nc(N3CCOCC3)c2CO1	0.5%	-1.7%[11.4 µM]	6.0%	nt	nt	4.8%[7.66 µM]	5.4%[11.4 µM]	nt	7.3%[11.4 µM]
5	O=c1c2ccccc2c(/C=N/n2cnnc2)c(O)n1-c1ccccc1	-0.1%	261.7%	2.4%	i	?	0.3%	-17.6%	i	-6.3%
6	Cc1csc(NC(=O)c2cc3c(s2)-c2ccccc2OC3)n1	-8.9%	434.1%	-24.4%	nt	nt	nt	22.4%	nt	31.6µM*
7	CCc1c(C)c2ccc(O)c(CN(C)C)c2oc1=O	0.3%	0.5%	-1.1%	i	i	-8.2%	24.8%	i	2µM*
8	CCOc1ccccc1C1C(C(=O)OC)=CN(C)C=C1C(=O)OC	-0.7%	142.2%	15.1%	i	?	2.9%	2.0%	i	31.6µM*
9	CC(=O)Oc1cc2oc(=O)c3c(c2cc1Cl)CCC3	1.0%	3.7%	12.7%	i	i	-12.9%	8.1%	i	184.3%[activator]
10	CCOC(=O)Cn1nnnc1C(CC)N(Cc1cccs1)Cc1cc2cc(C)ccc2[nH]c1=O (stereo not drawn)	-0.3%	33.6%	25.0%	i	i	-1.3%	3.98µM*	i	-4.1%
11	COc1cc(Cn2c(N)c(C#N)c3nc4ccccc4nc32)cc(OC)c1	1.1%	i	-23.3%	i	?	-4.5%	-16.8%	i	25.1µM*
12	Cc1[nH]c2ccccc2c1Cc1nnc(SCC(=O)NCc2ccco2)o1	-0.7%	78.6%	?	nt	nt	nt	3.7%	nt	?
13	CCn1c(C)cc2c(c1=O)C(c1ccccc1Br)C(C#N)=C(N)O2 (stereo not drawn)	2.0%	-7.0%	-2.9%	i	i	6.8%	6.0%	i	6.9%
14	CCCCCn1c(=NC(C)=O)c(C#N)cc2c(=O)n3cccc(C)c3nc21	1.0%	-21.5%	-7.2%	i	i	10.9%	-24.4%	i	235.0%[activator]
15	O=C(CN1C(=O)c2cccc3cccc1c23)Nc1ccc2c(c1)OCO2	0.9%	93.7%	1.7%	i	i	19.2%	-1.5%	i	3.3%
16	CN(C)c1ncc2nc(-c3ccc(F)cc3)c(=O)n(Cc3ccc(F)cc3)c2n1	0.2%[11.4 µM]	29.5%	15.8%	i	i	39.5%[activator]	12.4%	i	-1.4%
17	CCC(=O)Nc1nn(C)c2nc3c(C)cccc3cc12	-1.8%	-2.0%	26.4%	i	i	2.9%	7.6%	i	13.6%
18	CCc1c(-c2ccccc2)nc2nc(C)c(C)nn12	-12.3%	i	27.6%	nt	nt	nt	2.5%	nt	-1.2%
19	CCCCn1c(NC(C)=O)c(C#N)c2nc3ccccc3nc21	1.5%	i	-5.3%	i	?	12.5%	11.3%	?	240.5%[activator]
20	Cn1c(=O)c(-c2ccc(F)cc2)nc2cnc(N3CCOCC3)nc21	-1.7%[11.4 µM]	7.2%	14.3%	i	i	22.9%	?	i	3.6%
21	COc1ccc2nc(NC(=O)c3ccc(Br)s3)sc2c1	12.6µM*	268.8%	0.9%	i	i	21.2%	-8.7%	i	14.5%
22	COCCn1c(=O)c(-c2cccs2)nc2cnc(OC)nc21	1.1%[11.4 µM]	34.3%	-20.9%	i	i	16.1%	7.3%	i	2µM*
23	CCOC(=O)C1CCN(S(=O)(=O)c2ccc3c4c(cccc24)C(=O)N3)CC1	1.5%	44.1%	nt	nt	nt	nt	9.5%	nt	213.6%[activator]
24	Cc1cc2c(cc1C)NC(c1c(C)n(C)n(-c3ccccc3)c1=O)C1=C(CC(C)(C)CC1=O)N2 (stereo not drawn)	-9.5%	i	-20.1%	i	4.33e-08M*	44.8%[activator]	-5.7%	?	-6.6%
25	COCCn1c(=O)c(-c2ccc(OC)cc2)nc2cnc(N3CCN(C)CC3)nc21	2.0%[11.4 µM]	58.9%	21.4%	i	?	37.6%[activator]	14.1%	i	0.3%
26	COc1ccc(OC)c2c(N3CCN(C)CC3)cc(C(F)(F)F)nc12	-0.9%	-1.1%	-25.4%	i	i	1.3%	?	i	9.4%
27	Cn1c(=O)c(-c2cc(F)cc(F)c2)nc2cnc(Oc3ccccc3)nc21	1.1%[11.4 µM]	12.6µM*	-29.1%	i	i	52.9%[activator]	-18.4%	i	?
28	O=C(CN1C(=O)c2cccc3cccc1c23)N1CCN(Cc2ccc3c(c2)OCO3)CC1	2.6%	4.9%	-18.2%	i	i	36.5%[activator]	10.0%	i	3.0%

Quoted at random: four records from the list.
item	Structure	FLuc inh	Tau filament bind	ERK AVP inh	Rhodamine fluor	Fluorescein autfl	USP2a inhib	HEK293 cAMP cs	TexasRed autofl	HADH2 inhib
17	CCC(=O)Nc1nn(C)c2nc3c(C)cccc3cc12	-1.8%	-2.0%	26.4%	i	i	2.9%	7.6%	i	13.6%
9	CC(=O)Oc1cc2oc(=O)c3c(c2cc1Cl)CCC3	1.0%	3.7%	12.7%	i	i	-12.9%	8.1%	i	184.3%[activator]
6	Cc1csc(NC(=O)c2cc3c(s2)-c2ccccc2OC3)n1	-8.9%	434.1%	-24.4%	nt	nt	nt	22.4%	nt	31.6µM*
21	COc1ccc2nc(NC(=O)c3ccc(Br)s3)sc2c1	12.6µM*	268.8%	0.9%	i	i	21.2%	-8.7%	i	14.5%

Taken from above.
`CCC(=O)Nc1nn(C)c2nc3c(C)cccc3cc12` in Tau filament bind is listed with -2.0%
`COc1ccc2nc(NC(=O)c3ccc(Br)s3)sc2c1` in FLuc inh is listed with 12.6µM*
`CCOc1ccccc1C1C(C(=O)OC)=CN(C)C=C1C(=O)OC` in USP2a inhib is listed with 2.9%
`O=C(CN1C(=O)c2cccc3cccc1c23)N1CCN(Cc2ccc3c(c2)OCO3)CC1` in Tau filament bind is listed with 4.9%
`CC(=O)Oc1cc2oc(=O)c3c(c2cc1Cl)CCC3` in ERK AVP inh is listed with 12.7%

Profiles as entered above. Values in the order: FLuc inh | Tau filament bind | ERK AVP inh | Rhodamine fluor | Fluorescein autfl | USP2a inhib | HEK293 cAMP cs | TexasRed autofl | HADH2 inhib
`CC(=O)Oc1cc2oc(=O)c3c(c2cc1Cl)CCC3` is entered as 1.0% | 3.7% | 12.7% | i | i | -12.9% | 8.1% | i | 184.3%[activator]
`Cn1c(=O)c(-c2ccc(F)cc2)nc2cnc(N3CCOCC3)nc21` is entered as -1.7%[11.4 µM] | 7.2% | 14.3% | i | i | 22.9% | ? | i | 3.6%

Screening results (PubChem)

The list is partial. The share of hits here may be higher or lower than overall.
